E coli growth – E. coli growth inhibition, primary screen, OD600; Escherichia coli growth, 23 h; hits give low values; OD600 absorbance (no concentration beside the values); hit rate 0.21% among 330,000;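 active = OD600 absorbance below the run mean of sample wells minus 3.6 SD, in any replicate, cut at about 0.56 in these data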;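 also: stock transfer was 300 nL into about 60 µL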
FGF22 binding – binders of human FGF22 protein, primary screen, FGF22 synaptogenesis inhibitor project, biophysical, thermal shift, single point | Fibroblast growth factor 22 (Homo sapiens), Q9HCT0 | recombinant FGF22 thermal shift, SYPRO orange fluorescence; percent of sucrose octasulfate shift, DMSO zero | calls only at 9.99 µM | hit rate 1.5% among 340,000;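 active = melting point raised past a set limit in the mean and every replicate; inconclusive = no clear call; three in four hits are not shown here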
Target sequence (Q9HCT0 whole entry, looked up): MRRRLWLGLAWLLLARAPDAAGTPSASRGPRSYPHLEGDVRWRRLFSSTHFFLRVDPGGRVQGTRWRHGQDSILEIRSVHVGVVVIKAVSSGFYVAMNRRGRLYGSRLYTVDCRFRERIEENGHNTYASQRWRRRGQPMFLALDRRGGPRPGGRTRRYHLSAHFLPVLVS
Ecoli rRNA inh – reduced GFP signal of wild-type E. coli, primary screen, bacterial rRNA inhibitor project, GFP/RFP fluorescence, OD600, single point; hit rate 1.6% among 350,000; GFP signal change (wild-type ribosome), % (no concentration beside the values); E. coli WT GFP vs humanized-ribosome RFP mutants, 24 h; hits give low values; DMSO median 0, no signal -100; AID 720706, 2013;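 active = significant combined selectivity score with lowered wild-type GFP, culture density cut under 30%, mutant RFP and density less affected; inactive = any of these conditions unmet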; also: one replicate is shown; some compounds called inactive have numbers as strong as hits
Vif A3G – inhibitors of Vif binding to APOBEC3G peptide, primary screen, biochemical, TR-FRET, GST-Vif 1-94, biotin-A3G peptide, dose response retest (AID 1117319); Virion infectivity factor (Human immunodeficiency virus type 1 group M subtype B (isolate …; TR-FRET GST-Vif / biotin-A3G peptide binding; higher % means a stronger effect; test concentration not given here; strong numbers were not always called active; inhibition, %; hits with a dose series show IC50 in µM; hit rate 0.57% among 260,000;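 active = above the screen mean plus three standard deviations and confirmed in dose response; inconclusive = results disagree or hit not tested in dose response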;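 also: Vif residues 1-94 fused to GST binding biotinylated APOBEC3G peptide 110-148; 0% = full assay without inhibitor and 100% = GST in place of GST-Vif; retest series ran down from 100 µM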
AF4-AF9 inh – inhibitors of AF4 peptide binding to AF9, primary screen, biochemical, AlphaScreen, biotin-AF4 peptide, FLAG-AF9, single point | hit rate 0.47% among 350,000 | inhibition, % at 10 µM;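 active = every replicate reaching a set inhibition limit, whatever the replicate mean, cut at about 25% in these data; inconclusive = mean inhibition reaches that limit but some replicates miss it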;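 also: 0% = plate neutral control median and 100% = total signal loss; the record names both 10 and 1 µM as test concentration; the first replicate is given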
HNF4A DNA FP – change in binding of human HNF4A to DNA, primary screen, biochemical, fluorescence polarization, FITC-DNA. Hepatocyte nuclear factor 4-alpha (Homo sapiens), P41235. 1 h. activity change, % at 10 µM. hit rate 0.3% among 360,000. AID 1224865, 2016; in the data active = activity change above about 30%, passing the limit was not always enough;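 also: controls were the assay level and a saturating level of protein; the project sought stronger binding though the title names inhibitors; some compounds called inactive have numbers as strong as hits; positive values seem to mean higher polarization but the record does not say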
Target sequence (P41235 whole entry, looked up): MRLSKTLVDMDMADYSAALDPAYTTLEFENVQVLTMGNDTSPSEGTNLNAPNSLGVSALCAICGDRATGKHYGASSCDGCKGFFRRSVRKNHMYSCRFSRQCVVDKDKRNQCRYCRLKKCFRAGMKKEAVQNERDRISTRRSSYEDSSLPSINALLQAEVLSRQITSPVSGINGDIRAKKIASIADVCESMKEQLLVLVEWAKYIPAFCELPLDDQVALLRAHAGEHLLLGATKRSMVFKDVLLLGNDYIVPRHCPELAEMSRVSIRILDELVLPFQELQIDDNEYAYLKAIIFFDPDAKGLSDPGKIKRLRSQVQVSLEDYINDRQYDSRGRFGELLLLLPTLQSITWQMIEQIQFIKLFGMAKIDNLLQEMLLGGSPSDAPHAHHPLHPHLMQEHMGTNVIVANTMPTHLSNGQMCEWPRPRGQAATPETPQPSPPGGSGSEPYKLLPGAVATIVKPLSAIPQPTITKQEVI
ALR inh – inhibitors of human ALR sulfhydryl oxidase, primary screen, biochemical, H2O2 detection, HRP-luminol luminescence, single point; FAD-linked sulfhydryl oxidase ALR (Homo sapiens), P55789; purified ALR, DTT oxidation; inhibition, % (no concentration beside the values); hit rate 3.8% among 290,000; AID 485317, 2010;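 active = mean and each replicate at 75% or more; inconclusive = only one of the two met; inactive = neither met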;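 also: stock transfer was 7.5 nL into about 7.5 µL; 0% = neutral wells and 100% = wells with inactivated enzyme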
Target sequence (P55789 whole entry, looked up): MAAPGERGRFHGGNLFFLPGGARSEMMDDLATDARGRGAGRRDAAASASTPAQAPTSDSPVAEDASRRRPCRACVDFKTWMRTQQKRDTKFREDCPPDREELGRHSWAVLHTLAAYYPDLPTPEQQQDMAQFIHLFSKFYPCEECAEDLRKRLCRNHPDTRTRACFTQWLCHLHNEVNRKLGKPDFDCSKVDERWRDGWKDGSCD
Ecoli rRNA inh OD600 – second read-out of Ecoli rRNA inh, no call of its own (marks repeat the call); OD600 change, %; measured here: OD600 growth;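 optical density of the mix in the first replicate; 0 = DMSO median and -100 = no signal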
Ecoli rRNA inh RFP – second read-out of Ecoli rRNA inh, no call of its own (marks repeat the call); RFP signal change, %; measured here: RFP humanized mutant strains;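 first replicate; 0 = DMSO median and -100 = no signal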
The depositor's hits bear a star; i = inactive; ? = inconclusive; . = no result given. A portion of the library; rates above refer to the full screens.

SMILES | E coli growth | FGF22 binding | Ecoli rRNA inh | Ecoli rRNA inh OD600 | Ecoli rRNA inh RFP | Vif A3G | AF4-AF9 inh | HNF4A DNA FP | ALR inh
CCOc1ccc(Nc2nc(Nc3ccc(O)cc3)nc(C)c2[N+](=O)[O-])cc1 | 0.7 | . | 4 | 1 | -3.7 | -5% | 1.1 | -2.3 | -15
CC(=O)c1ccc(NC(=O)c2ccc(NC(=O)CCS(=O)(=O)c3cccs3)cc2)cc1 | 0.68 | i | 1 | 0 | 2.2 | -1% | -3.4 | 1.6 | .
COc1ccc(N(CC(=O)NC(C)(C)C)S(=O)(=O)c2ccccc2)cc1OC | 0.68 | i | -1 | -2 | -5.3 | -4% | 0.1 | -1.0 | -5
O=C(C[C@H]1C[C@H]2c3cc(NC(=O)NC4CCCC4)ccc3O[C@H]2[C@H](CO)O1)NCc1ccccc1F | . | i | 0 | 1 | 0.1 | . | 3.0 | . | .
CC(Oc1ccccc1)C(=O)Nc1ccc(S(=O)(=O)N2CCOCC2)cc1 (configuration not stated) | 0.68 | i | -9 | -12 | -5.5 | 1% | 6.5 | 1.5 | 1
CCCCn1c(N)c(N(CC)C(=O)CCNC(=O)NC23CC4CC(CC(C4)C2)C3)c(=O)[nH]c1=O | 0.71 | i | -5 | -16 | 0.7 | . | 0.1 | -0.1 | -4
Cc1cc(NC(c2ccc(Cl)cc2)c2ccc3cccnc3c2O)no1 (configuration not stated) | 0.69 | . | . | . | . | 6% | . | -2.5 | 0
CSc1ccc(CN(C)C(=O)c2cc3ccccc3o2)cc1 | 0.62 | i | -2 | -41 | -1.7 | -2% | -0.5 | 0.1 | -26
CC1CN(C(=O)c2cnn3c(C(F)F)cc(-c4ccccc4)nc23)CC(C)O1 (configuration not stated) | 0.73 | . | . | . | . | 0% | . | 5.1 | -1
CC=Cc1ccc2n(c1=O)C[C@H]1[C@H](CO)[C@@H](C(=O)N3CCCCC3)N(C(=O)CC)[C@@H]21 (mixture of isomers) | . | i | 2 | 8 | 0.1 | . | -0.5 | . | .
CCCc1cc(=O)n2nc(N3CCC(C(=O)N4CCN(c5ccc(OC)cc5)CC4)CC3)sc2n1 | 0.69 | i | 3 | 0 | -1.1 | . | 3.1 | 2.8 | 70
CCOc1cc(N2CCOCC2)c(OCC)cc1NC(=O)CN1C(=O)NC2(CCCCCCC2)C1=O | 0.69 | i | -5 | -2 | 0.3 | 4% | -0.9 | 0.7 | -3
CC(C)Cn1c(N)c(C(=O)COC(=O)c2cc(C3CC3)nc3ccccc23)c(=O)n(C)c1=O | 0.71 | i | -18 | -24 | -6.9 | -3% | -2.8 | . | 14
O=C(Nc1ccn(CC(=O)N2CCN(c3ccccn3)CC2)c(=O)n1)OCc1ccccc1 | 0.68 | i | 5 | 8 | -1.2 | . | 4.0 | -1.9 | -9
O=C(C[C@@H]1CC[C@@H](NC(=O)CN2CCOCC2)[C@@H](CO)O1)NCc1cccc(F)c1 | . | i | -1 | 0 | -1.5 | . | -0.7 | . | .
CC(=O)COC(=O)c1cccc(N2C(=O)C3C4C=CC(C4)C3C2=O)c1 (configuration not stated) | 0.72 | i | 15 | 18 | 1.3 | 9% | -0.9 | 1.1 | .
O=C(CCS(=O)(=O)c1ccccc1)Nc1nncs1 | 0.72 | i | 10 | 12 | 0.2 | . | 0.2 | -4.2 | -8
CCC(=O)N(C)C[C@H]1Oc2ncc(C#Cc3ccncc3)cc2C(=O)N([C@@H](C)CO)C[C@H]1C | . | i | 3 | 7 | -1.8 | . | -18 | . | .
O=C(C1CCN(S(=O)(=O)c2ccc(Cl)cc2)CC1)N1CCC1 | 0.67 | i | 6 | 5 | 1.9 | 1% | 0.0 | 2.2 | -10
O=C(Nc1ccnn1C1CCN(Cc2c(F)cccc2Cl)CC1)C1CCCC1 | 0.69 | i | 2 | -4 | 2.8 | 0% | 5.5 | 2.8 | -17
O=C(C[C@H]1CC[C@H]2[C@@H](COC[C@H](O)CN2Cc2ccc(Cl)cc2)O1)NCCc1ccccc1 | . | i | -8 | -38 | 19 | . | -0.1 | . | .
COc1ccccc1S(=O)(=O)N1C[C@H](O)COC[C@H]2O[C@H](CC(=O)O)CC[C@@H]21 | . | i | 5 | 4 | -2.4 | . | -11 | . | .
CCCCNC(=O)c1cc(-c2ccc3c(c2)OCO3)on1 | 0.65 | i | -4 | 6 | -5.4 | . | -1.6 | 1.1 | -4
Nn1cnnc1N/N=C/c1ccc(Cl)cc1Cl | . | i | 0 | 7 | 1.9 | -1% | 4.9 | 1.5 | -24
COC(=O)c1c(C)[nH]c(C)c1C(C)=O | 0.7 | i | -4 | 9 | -0.6 | -3% | -1.9 | 2.1 | -5
NC(=O)c1ccc(CN2CCc3ccccc3C2)cc1 | 0.69 | i | 15 | 8 | 2.4 | . | -4.0 | -5.0 | 0
COc1cccc(C(=O)COC(=O)C(C)N2C(=O)C3C4C=CC(C4)C3C2=O)c1 (configuration not stated) | 0.79 | . | . | . | . | 0% | . | 1.9 | -2
CCn1cc(CN2CCC(n3nccc3NC(=O)Cc3ccccc3)CC2)cn1 | 0.69 | i | 14 | 15 | -2.2 | -5% | 2.5 | -1.6 | -13
Cn1c(=O)[nH]c(=O)c2c1nc(NCCCO)n2Cc1ccc(F)cc1 | 0.64 | . | . | . | . | 2% | . | 1.5 | 23
CC(C)CCNCC1OCc2ccccc2CO1 | 0.7 | . | . | . | . | . | . | -2.8 | 0
COc1cccc(CNC(=O)CCCn2nc(C)c3c(C)n(-c4ccc(C)cc4)nc3c2=O)c1OC | 0.63 | i | 2 | 10 | -3.2 | . | 0.1 | 1.9 | -1
Cc1noc(C)c1S(=O)(=O)Nc1ccc2c(c1)C(=O)N([C@H](C)CO)C[C@@H](C)[C@H](CN(C)Cc1ccncc1)OCCCC[C@@H](C)O2 | . | i | 4 | 9 | -3.9 | . | -4.0 | . | .
COc1ccc(CC(=O)OCC(=O)Nc2cccc(Cl)c2)cc1 | 0.64 | i | -14 | -9 | 5.3 | 12% | -2.7 | 0.0 | .
CCN(CC)CCCN1C(=O)C(O)=C(C(=O)c2ccco2)C1c1ccc(OC(C)C)cc1 (configuration not stated) | 0.71 | . | . | . | . | -8% | . | 4.6 | 6
CC(=O)N(C)[C@H]1C[C@@H](c2ccccc2)N(C(C)=O)C[C@H]1CO | . | i | 11 | 10 | -0.3 | . | 0.5 | 2.6 | .
CO[C@@H]1CN(C)C(=O)c2ccc(NC(C)=O)cc2OC[C@H](C)N(Cc2ccccc2F)C[C@H]1C | . | i | -7 | -11 | 4.0 | . | 2.8 | . | .
Cc1ccc(S(=O)(=O)N2CCN(CC(=O)NC(=O)NCc3ccccc3)CC2)cc1C | 0.75 | . | . | . | . | -3% | . | -2.7 | -1
CSc1cccc(CN2CCC(CCC(=O)NC3CC3)CC2)c1 | 0.67 | i | 19 | 12 | 1.4 | . | -4.9 | -4.2 | 0
CC(C)(C)c1ccc(NC(=O)CSc2n[nH]c(=O)n2C2CC2)cc1 | 0.69 | i | 1 | -22 | -1.7 | . | 1.8 | -1.2 | -4
CCOc1ccccc1N/C(=N/c1nc(C)cc(C)n1)NC(=O)Nc1ccc(Cl)c(Cl)c1 | 0.7 | . | . | . | . | 8% | . | . | -2

Sorted by count of non-hydrogen atoms (lowest first): part of the list above
SMILES | E coli growth | FGF22 binding | Ecoli rRNA inh | Ecoli rRNA inh OD600 | Ecoli rRNA inh RFP | Vif A3G | AF4-AF9 inh | HNF4A DNA FP | ALR inh
COC(=O)c1c(C)[nH]c(C)c1C(C)=O | 0.7 | i | -4 | 9 | -0.6 | -3% | -1.9 | 2.1 | -5
CSc1ccc(CN(C)C(=O)c2cc3ccccc3o2)cc1 | 0.62 | i | -2 | -41 | -1.7 | -2% | -0.5 | 0.1 | -26
CC(C)(C)c1ccc(NC(=O)CSc2n[nH]c(=O)n2C2CC2)cc1 | 0.69 | i | 1 | -22 | -1.7 | . | 1.8 | -1.2 | -4
CCOc1ccc(Nc2nc(Nc3ccc(O)cc3)nc(C)c2[N+](=O)[O-])cc1 | 0.7 | . | 4 | 1 | -3.7 | -5% | 1.1 | -2.3 | -15
CCn1cc(CN2CCC(n3nccc3NC(=O)Cc3ccccc3)CC2)cn1 | 0.69 | i | 14 | 15 | -2.2 | -5% | 2.5 | -1.6 | -13
O=C(C[C@@H]1CC[C@@H](NC(=O)CN2CCOCC2)[C@@H](CO)O1)NCc1cccc(F)c1 | . | i | -1 | 0 | -1.5 | . | -0.7 | . | .
CC(C)Cn1c(N)c(C(=O)COC(=O)c2cc(C3CC3)nc3ccccc23)c(=O)n(C)c1=O | 0.71 | i | -18 | -24 | -6.9 | -3% | -2.8 | . | 14
CO[C@@H]1CN(C)C(=O)c2ccc(NC(C)=O)cc2OC[C@H](C)N(Cc2ccccc2F)C[C@H]1C | . | i | -7 | -11 | 4.0 | . | 2.8 | . | .

More structures follow.
SMILES | E coli growth | FGF22 binding | Ecoli rRNA inh | Ecoli rRNA inh OD600 | Ecoli rRNA inh RFP | Vif A3G | AF4-AF9 inh | HNF4A DNA FP | ALR inh
FC(F)(F)c1ccc(N2CCN(c3cc(-c4ccccc4)nc4ncnn34)CC2)nc1 | 0.67 | . | . | . | . | -2% | . | -2.2 | -2
CC(C)=CC(=O)Nc1ccc(Br)cc1 | 0.62 | i | -5 | 5 | 2.4 | 3% | -1.5 | -0.1 | -4
CC(=O)Nc1ccc(CN2C(=O)C(C)ON=C2c2ccccc2-c2ccco2)cc1 (configuration not stated) | . | i | 4 | 4 | -1.5 | . | -0.7 | 5.5 | .
CC(C)Cn1nc(C(=O)Nc2cccc(S(=O)(=O)N3CCCC3)c2)c2ccccc2c1=O | 0.63 | i | -5 | -7 | 0.2 | -11% | -13 | -0.8 | 0
CC(C)NC(=O)N1CC2(C1)[C@@H](c1ccccc1)[C@@H](CO)N2C(=O)C1CCCC1 | . | i | 3 | 5 | -3.3 | . | 0.6 | . | .
COCC(=O)Nc1ccc2c(c1)[C@@H]1C[C@H](CC(=O)NCC3CC3)O[C@@H](CO)[C@@H]1O2 | . | i | 2 | 6 | -2.2 | . | -1.0 | . | .
O=C(Nc1cccc(-c2cn3cccnc3n2)c1)Nc1ccccc1F | 0.7 | i | 2 | 6 | -1.1 | 7% | 1.1 | -5.2 | 12
O=C(C1CCOCC1)N1CC(=O)N2[C@@H](CO)[C@H](c3ccc(C#Cc4cccc(F)c4)cc3)[C@@H]2C1 | . | i | 2 | -8 | 0.6 | . | -6.8 | . | .
Cc1ccc(CN2CC(C(=O)O)CC2=O)cc1 (configuration not stated) | 0.69 | . | . | . | . | 2% | . | 3.8 | -28
COc1ccc(NC(=O)N(C)C[C@@H]2Oc3ccc(NC(=O)NC4CCCCC4)cc3CC(=O)N([C@@H](C)CO)C[C@H]2C)cc1 | . | i | -5 | -4 | 0.6 | . | 1.4 | . | .
CCOC(=O)C(CCCCCCP(=O)(c1ccccc1)c1ccccc1)NC(C)=O (configuration not stated) | 0.67 | i | 13 | -3 | 0.5 | ? | -3.1 | 6.0 | -4
O=c1oc(CCO)cc2ccc(-c3ccc4[nH]ccc4c3)cc12 | 0.71 | i | 3 | -7 | -2.6 | . | -2.6 | -2.8 | -29

High-throughput results: PubChem BioAssay, several laboratories
